# From PubChem BioAssay
# gsp ag – qHTS for Agonist of gsp, the Etiologic Mutation Responsible for Fibrous Dysplasia/McCune-Albright Syndrome: qHTS. gsp mutant cells, cAMP HTRF, 30 min; control for the full effect not named in the record. Potency, µM (highest dose often 76.9 µM), without a hit: at the top dose activation (cAMP increase), most hits filed as activators. 340,000 tested, 0.13% active. AID 624287, 2012; active = well fitted activation curve with a large enough effect; inconclusive = small, poorly fitted or top-dose-only effect, or another doubt; inactive = no such curve, though single readings can be large or run the other way; cell line not stated here;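 also: phosphodiesterase inhibitor Ro 20-1724 added with compounds to block cAMP breakdown; potency is read from the fitted curve at half-maximal effect; nearly all actives have a fitted effect of over 60% in size; about a fifth of the inactives were tested at one dose only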
#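 Cells in DMEM/10% FBS with G418 were pretreated with compounds in DMSO plus […] (300 uM stock) for 30 min at 37C. cAMP was measured by HTRF (cAMP-d2 plus anti-cAMP antibody-K) after 30 min at room temperature.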
# Sfp inh – qHTS Assay for Inhibitors of Bacillus subtilis Sfp phosphopantetheinyl transferase (PPTase); Biochemical Sfp PPTase activity, qHTS; 4'-phosphopantetheinyl transferase ffp (Bacillus subtilis), Q9F4F7; Potency, µM, for inactives: max response, negative = inhibition, most hits filed as inhibitors; 310,000 tested, 3.5% active; active = well fitted inhibition curve with a large enough effect; inconclusive = small, poorly fitted or top-dose-only effect, or another doubt; inactive = no such curve, though single readings can be large or run the other way;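 also: the enzyme is Sfp with the accession as filed and its product quenches rhodamine fluorescence; potency is read from the fitted curve at half-maximal effect; 0% = enzyme reaction without inhibitor and -100% = no enzyme wells; top concentration of the series not given in the record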
#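 Fluorescence-quenching assay: 15 nM Sfp-PPTase preincubated 15 min at room temperature with compound, then 5 uM rhodamine-CoA and 12.5 uM BHQ-2-labelled YbbR peptide added. Fluorescence (ex 525/em 598 nm) read at start and after 30 min; difference gives rate.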
# CtBP-E1A blk – qHTS Assay for Inhibitors of the CtBP/E1A Interaction; CtBP / adenovirus E1A interaction (AlphaScreen); AlphaScreen GST-E1A/His-CtBP binding, 1536-well; active compounds read low; control for the full effect not named in the record; activity change, % (test concentration not listed); 340,000 tested, 0.49% active; AID 651724, 2012; in the data active means activity change below about -65%; inconclusive means about -30% to -65%; inactive means above about -30%; also: % is scaled to controls: 0 for no effect and ±100 for the full control effect
#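 In 5 uL wells, 23 nL compound meets equimolar GST-E1A and His-CtBP (5X stock 125 nM each) for 2 h, 37 °C. Beads (5X, 50 ug/mL) then 1 h, 37 °C, dark.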
# TRPV1 potentiator – HTS Assay for Compounds that Act as Potentiators of the Vanilloid Receptor 1. TRPV1-expressing cells, Fluo-8 calcium influx, capsaicin EC20 potentiation; host cell line not named in the record; control for the full effect not named in the record. potentiation, % at 8.33 µM. 320,000 tested, 0.02% active; active means potentiation above 80%; inconclusive means 30% to 80%; inactive means below 30%; also: 0% is about no effect
# Target sequence (Q8NER1 whole entry, looked up): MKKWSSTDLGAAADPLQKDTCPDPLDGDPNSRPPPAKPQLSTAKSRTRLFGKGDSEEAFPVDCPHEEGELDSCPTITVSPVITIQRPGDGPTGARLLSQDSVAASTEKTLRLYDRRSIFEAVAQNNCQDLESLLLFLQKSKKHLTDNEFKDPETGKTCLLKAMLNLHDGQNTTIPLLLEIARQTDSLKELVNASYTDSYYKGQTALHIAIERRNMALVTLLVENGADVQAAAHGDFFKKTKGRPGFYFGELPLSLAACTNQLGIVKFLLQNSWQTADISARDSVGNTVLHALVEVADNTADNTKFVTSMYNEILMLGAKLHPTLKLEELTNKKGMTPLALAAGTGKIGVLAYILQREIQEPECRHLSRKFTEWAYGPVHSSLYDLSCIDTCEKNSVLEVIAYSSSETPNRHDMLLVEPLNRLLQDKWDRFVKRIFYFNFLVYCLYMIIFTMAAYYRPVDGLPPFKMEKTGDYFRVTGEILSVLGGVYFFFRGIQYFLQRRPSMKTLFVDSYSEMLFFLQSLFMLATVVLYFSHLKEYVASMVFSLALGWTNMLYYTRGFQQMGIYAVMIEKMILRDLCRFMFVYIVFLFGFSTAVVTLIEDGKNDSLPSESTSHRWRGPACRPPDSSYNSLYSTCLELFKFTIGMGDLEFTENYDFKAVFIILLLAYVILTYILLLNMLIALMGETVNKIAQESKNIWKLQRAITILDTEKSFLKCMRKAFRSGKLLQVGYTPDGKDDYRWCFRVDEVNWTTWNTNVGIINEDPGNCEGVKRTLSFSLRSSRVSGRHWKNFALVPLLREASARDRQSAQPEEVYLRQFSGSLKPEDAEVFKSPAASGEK
#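 TRPV1-expressing cells were cultured overnight at 35.5C and loaded with Fluo-8 calcium dye for 40 to 90 min at room temperature. After a 10 s baseline, compound was added and calcium influx was read kinetically for 3 min (ex 480/em 520 nm).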
# Menin MLL FP FL – qHTS Assay for Inhibitors Targeting the Menin-MLL Interaction in MLL Related Leukemias: Competition With Fluorescein Labeled MLL-derived Peptide | Fluorescence polarization, fluorescein-MLL peptide displacement from menin | FP activity change, % at 61.4 µM | 290,000 tested, under 10 active; inconclusive = falling polarisation curve, or a change in total fluorescence; inactive = total fluorescence flat and polarisation flat or rising; no compound was filed as active; the % refers to the polarisation; negative = inhibition;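 also: % of control where 0% means no effect; inhibitors lower the polarisation; unlabelled MLL peptide was the positive control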
# gsp antagonist – qHTS for Antagonists of gsp, the Etiologic Mutation Responsible for Fibrous Dysplasia/McCune-Albright Syndrome: qHTS; 340,000 tested, 0.4% active; gsp-mutant cells, cAMP HTRF, 30 min; control for the full effect not named in the record; Potency, µM (series often up to 76.9 µM), for the others: at the top dose activity change, negative = inhibition, usual class: inhibitors; AID 624288, 2012; active = falling curve of any shape with a large fitted effect; inconclusive = falling curve, mostly with a smaller effect; inactive = flat or rising curve; cell line not stated here;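 also: intracellular cAMP measured with PDE inhibitor Ro 20-1724 present during compound exposure; potency is read from the fitted curve at half-maximal effect; % is scaled to controls: 0 for no effect and ±100 for the full control effect; nearly all actives have a fitted effect of over 65% in size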
#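 G418-selected cells were plated in DMEM/10% FBS for 16-24 h at 37C, then treated with compounds plus the PDE inhibitor […] (300 uM solution added) for 30 min at 37C. Intracellular cAMP was measured by HTRF after 30 min lysis at room temperature.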
# ClpP mod – qHTS Assay for Activators of ClpP; ATP-dependent Clp protease proteolytic subunit (Bacillus subtilis (strain 168)), P80244; purified B. subtilis ClpP, FRET peptide cleavage, 20 min; Potency, µM (doses to about 57.5 µM), for the others: top-dose activity change, negative = active; 340,000 tested, 1.9% active; AID 651965, 2013; active = well fitted falling curve with a large enough effect; inconclusive = small, poorly fitted or top-dose-only effect; inactive = no such curve, though single readings can be large or run the other way; also: potency is read from the fitted curve at half-maximal effect; the source files actives as falling curves though it sought activators and does not explain the sign; nearly all actives have a fitted effect of over 65% in size; many hits overshoot -100%
# Target sequence (P80244 whole entry, looked up): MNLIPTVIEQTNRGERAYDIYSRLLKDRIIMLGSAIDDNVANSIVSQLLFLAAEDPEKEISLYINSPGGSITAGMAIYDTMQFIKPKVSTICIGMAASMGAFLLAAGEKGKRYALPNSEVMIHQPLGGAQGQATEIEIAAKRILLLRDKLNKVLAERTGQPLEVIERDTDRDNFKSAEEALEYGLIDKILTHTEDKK
#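 Buffer: 100 mM Tris/HCl pH8, 100 mM KCl, 0.05% low protease BSA, 2.5% glycerol, 0.01% Tween-20. ClpP 10 microg/mL final; 20 min RT; delta FRET normalized to ADEP and DMSO controls.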
# * = called active by the depositor; ? = inconclusive; . = no result given; & = joins results of further samples; [ ] = remark or other dose.
Molecule | Sfp inh | ClpP mod | TRPV1 potentiator | CtBP-E1A blk | gsp antagonist | gsp ag | Menin MLL FP FL
Cc1ccc(C(=O)CSc2nc(N)cc(=O)[nH]2)cc1C | 4% | . | 25 | 3 | -6% | -8% | 5.3
Cc1cccc(OCCC(=O)OCc2csc(CC(=O)Nc3ccccc3C)n2)c1 | . | 0.3% | -3 | . | -3% | -4% | .
CC1CC(C)(C)NC(=S)N1CCCC(=O)Nc1ccc(F)cc1 (configuration not stated) | 16% | -1.6% | 7 | 2 | -3% | -7%[15.4 µM] | -8.0
CCOC(=O)N1CCN(C(=O)CCNS(=O)(=O)c2ccccc2)CC1 | 4% | -1.2% | 2 | 12 | 10% | -6% | .
O=c1[nH]c(=O)n(-c2ccccc2)c2c1C(C(F)(F)F)(C(F)(F)F)N=C(C1CCCCC1)N2 | 17% | -0.2% | 29 | -11 | -4% | -1%[15.4 µM] | .
COc1ccc(NCC(O)Cn2c(C)c(C)c3ccccc32)cc1 (configuration not stated) | 5% | . | ? | -29 | -3% | 6%[15.4 µM] | 5.2
CCCc1ccc(S(=O)(=O)NCC2CCCN2CC)cc1 (configuration not stated) | 14% | -2.6% | -39 | -16 | 3% | -6% | 2.4
COc1ccccc1-n1c(SCc2cc(=O)oc3cc(O)ccc23)nc2ccccc2c1=O | 11% | -54% | 13 | -16 | -5% | -2% | 9.4
COc1ccc(-n2nc3c(c2NC(C)=O)CS(=O)(=O)C3)cc1 | 10% | -1.5% | -10 | -1 | 11% | -27% | 3.5
CCC(CC)NC(=O)CN1CCN(S(=O)(=O)c2ccc(Br)s2)CC1 | . | -0.2% | -8 | -6 | -3% | 6% | .
CN1C(=O)C(C)(C)c2cc(S(=O)(=O)N3CCCC(C(=O)NCc4ccccc4Cl)C3)ccc21 (configuration not stated) | 23% | 0.2% | -14 | 2 | -11% | 4% | -2.7
CCCC[C@@H]1C=C(C(=O)O)[C@H](c2ccc(Cl)c(Cl)c2)N1S(=O)(=O)c1ccc(C)cc1 | . | -2.8% | . | -29 | -16% | . | .
Brc1ccccc1-c1nnc(CSc2nnc3sc4ccccc4n23)o1 | -11% | -1.6% | -3 | -7 | -1% | 19% | 2.9
COC(=O)C1=C(C(=O)OC)[C@@H]2N(C)c3ccc(OC)cc3[C@@]23C[C@@H](C(=O)OC)N(C(=O)c2ccc(Br)cc2)C3=N1 | 9%&7% | -2.6% | -17 | -18 | -4% | . | -8.6[11.7 µM]
CC(=O)C1=C(O)C(=O)N(Cc2ccco2)C1c1ccccc1F (configuration not stated) | -16% | . | 3 | 0 | 0% | ? | 2.5
CCOc1ccc(NC(=O)CSc2nccn2C)cc1 | 28% | 1.9% | 2 | 1 | 12% | -15% | 1.6
COc1cccc(-c2c(-c3cc(OC)cc(OC)c3)n(C)c3ccc(Br)cc23)c1 | . | 4.1% | 1 | -8 | 6% | 7% | .
CN(Cc1c(F)cccc1Cl)C(=O)CNC(=O)c1cccs1 | 11% | 0.0% | -5 | 1 | 9% | 2% | .
C[C@H](CO)N1C[C@H](C)[C@H](CN(C)Cc2cncnc2)Oc2ncc(C#CC3(O)CCCC3)cc2C1=O | . | -0.9% | . | 2 | . | 6% | .
O=C(CSc1nc2ccccc2n1CC(=O)NCc1ccccc1)NCc1ccco1 | 7% | -0.5% | -7 | -2 | 11% | -1% | -2.0
Oc1c(N=NC(=S)Nc2ccccc2F)c2ccccc2n1Cc1ccc(F)cc1 | ? | -0.6% | 7 | 0 | -5% | -27% | 0.6
O=C(Nc1ccc(OC(F)(F)F)cc1)c1ccc2nccnc2c1 | -6% | -2.0% | -3 | -13 | -9% | 20% | -0.6
N#Cc1ccc(OCC(=O)Nc2ccccc2NS(=O)(=O)c2cccs2)cc1 | -5% | 0.5% | 5 | -3 | -5% | 2% | 3.4
CC(=O)Nc1ccc2oc(-c3ccccc3)nc2c1 | -12% | 4.5% | -27 | -4 | 0% | -7% | -2.1
O=C(Nc1cccc(F)c1)c1cccc2c1C(=O)N(C1CCCCC1)C2 | -7% | -0.4%&-2.6% | -6 | . | 2% | 10% | .
CC(=O)N/C(=N/c1nc(C)cc(C)n1)Nc1ccc(C)cc1C | 7% | 1.1% | -5 | 6 | -20% | -3%[15.4 µM] | 5.0
O=C1SC(SCc2ccccc2Cl)=N/C1=C\c1ccc(C(=O)O)cc1 | -49% | -3.5% | 12 | -8 | 7% | 0% | 6.9
COc1ccc([N+](=O)[O-])c(S(=O)(=O)c2ccc(Cl)cc2)n1 | ? | . | 0 | 8 | -14% | 15% | -0.2
Cc1cc(C)cc(NC(=S)N2CCC(c3nc4ccccc4s3)CC2)c1 | 15% | -0.8% | -9 | -14 | -11% | -29% | 2.0
O=C(Nc1cccc(S(=O)(=O)Nc2ccc(Cl)cc2)c1)c1ccccn1 | . | -1.7% | 12 | -24 | -18% | 6% | .
CCOC(=O)COc1ccc(/C=C2/SC(=Nc3ccccc3)N(Cc3cccnc3)C2=O)cc1OC | ? | -0.1% | 9 | -15 | ? | 2% | 6.2
O=C(NNC(=O)C(c1ccccc1)c1ccccc1)c1ccccn1 | 5% | . | 16 | ? | 1% | 17%[15.4 µM] | 5.4
CC(C)(C)n1cnnc1Sc1ccc([N+](=O)[O-])cn1 | 9% | -3.8% | 3 | . | 5% | -8% | 0.1
O=C(COC(=O)c1cccs1)Nc1ccccc1Cl | 4% | . | -7 | 6 | 7% | 4%[15.4 µM] | -0.8
Nc1c2c(nc3ccc(Br)cc13)N(c1ccccc1)CC2 | 18µM* | ? | -2 | 0 | -10% | 2% | ?
c1ccc(CSc2nnc(-c3ccco3)n2Cc2ccco2)cc1 | 4µM* | 0.8% | 0 | -2 | -6% | 3% | 8.3
COCCSc1nnc(NC(=O)COC)s1 | 3% | 0.0% | -8 | 11 | -4% | -4% | 1.0
Cc1c(Cl)c([N+](=O)[O-])nn1CC(=O)NCC1CCCO1 (configuration not stated) | 15% | 0.4% | -4 | 7 | 18% | -3%[15.4 µM] | -1.2
O=S(=O)(c1ccccc1Cl)N1CCCC1c1nc(-c2ccccc2Cl)no1 (configuration not stated) | 11% | -2.0% | 0 | 20 | -36% | -6% | 4.0
CC(NC(=O)Cn1nc(C(=O)O)c2ccccc2c1=O)c1ccccc1 (configuration not stated) | 10% | -3.2% | 3 | -9 | 5% | 3% | 0.4

# Shown as labelled records: 2 of the compounds above
O=S(=O)(c1ccccc1Cl)N1CCCC1c1nc(-c2ccccc2Cl)no1 (configuration not stated)
  Sfp inh: 11% | ClpP mod: -2.0% | TRPV1 potentiator: 0 | CtBP-E1A blk: 20 | gsp antagonist: -36% | gsp ag: -6% | Menin MLL FP FL: 4.0
CC(NC(=O)Cn1nc(C(=O)O)c2ccccc2c1=O)c1ccccc1 (configuration not stated)
  Sfp inh: 10% | ClpP mod: -3.2% | TRPV1 potentiator: 3 | CtBP-E1A blk: -9 | gsp antagonist: 5% | gsp ag: 3% | Menin MLL FP FL: 0.4

# Additional entries follow:
Molecule | Sfp inh | ClpP mod | TRPV1 potentiator | CtBP-E1A blk | gsp antagonist | gsp ag | Menin MLL FP FL
CC1CC(CC(C)C(=O)NC(=S)Nc2ccc(S(N)(=O)=O)cc2)C(=O)O1 (configuration not stated) | 3% | . | 0 | 2 | 7% | -3% | 2.9
COc1ccc2ncc(S(=O)(=O)c3ccccc3)c(N3CCC4(CC3)OCCO4)c2c1 | 6% | 3.6% | -3 | -14 | 7% | 11% | 2.9
CCN1C(=O)[C@H]2[C@@H](c3ccc(C(F)(F)F)cc3)N[C@]3(CCCN(Cc4ccc(Br)cc4)C3=O)[C@H]2C1=O | . | -0.5% | . | -10 | . | ? | .
O=C(CN1CCN(Cc2ccc(Cl)cc2)CC1)N/N=C/c1c[nH]c2ccccc12 | 18% | -4.9% | 1 | -14 | 18% | -3% | -0.8
C[C@H](O)[C@@H]1C(=O)N2CCc3ccc(-c4ccccc4)cc3[C@@H]2C[C@@H]1N(C)C(=S)Nc1ccc(F)cc1 | . | -3.0% | . | -9 | . | 31% | .
COc1cccc(C(=O)c2cc3cc(Cl)ccc3[nH]2)c1 | 16% | ? | -3 | 3 | -14% | -13%[15.4 µM] | 2.8
C=CCNC(=S)NNC(=O)Cn1c(-c2ccccc2)cc(=O)n2ncnc12 | 6% | 0.2% | 30 | -1 | 19% | 0% | 4.5
Cc1nnnn1/C(=C\c1ccccc1)C(=O)OCC(=O)Nc1ccc(Cl)cc1F | . | 0.8% | 3 | 5 | 34%[activator] | 20% | .
Cc1ccc2[nH]c(=O)c(CN(CCO)C(=O)N(C)C)cc2c1 | . | 28µM* | . | 1 | -3% | -4% | .

# In the list so far, 7 have two or more sulfur atoms:
Molecule | Sfp inh | ClpP mod | TRPV1 potentiator | CtBP-E1A blk | gsp antagonist | gsp ag | Menin MLL FP FL
CCC(CC)NC(=O)CN1CCN(S(=O)(=O)c2ccc(Br)s2)CC1 | . | -0.2% | -8 | -6 | -3% | 6% | .
Brc1ccccc1-c1nnc(CSc2nnc3sc4ccccc4n23)o1 | -11% | -1.6% | -3 | -7 | -1% | 19% | 2.9
N#Cc1ccc(OCC(=O)Nc2ccccc2NS(=O)(=O)c2cccs2)cc1 | -5% | 0.5% | 5 | -3 | -5% | 2% | 3.4
O=C1SC(SCc2ccccc2Cl)=N/C1=C\c1ccc(C(=O)O)cc1 | -49% | -3.5% | 12 | -8 | 7% | 0% | 6.9
Cc1cc(C)cc(NC(=S)N2CCC(c3nc4ccccc4s3)CC2)c1 | 15% | -0.8% | -9 | -14 | -11% | -29% | 2.0
COCCSc1nnc(NC(=O)COC)s1 | 3% | 0.0% | -8 | 11 | -4% | -4% | 1.0
CC1CC(CC(C)C(=O)NC(=S)Nc2ccc(S(N)(=O)=O)cc2)C(=O)O1 (configuration not stated) | 3% | . | 0 | 2 | 7% | -3% | 2.9

# Rows are unselected. Share with any hit: about 5.3%.
